# Source: PubChem BioAssay
# Methyltransferases = Primary Screen for Target Class Profiling of Small Molecule Inhibitors of Methyltransferases; purified enzyme, MTase-Glo SAH luminescence; hits give low values; calls only at 40 µM; 3.9% of 25,000 active; AID 1745853, 2022; active = -50% or lower on at least one of six enzymes; inconclusive = the cases between; inactive = as a rule above -30% on all six;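 note: enzymes were COMT GAMT GNMT HNMT NNMT and PNMT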
#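 Each enzyme was reacted with SAM and its substrate, with compounds tested once at 40 uM; SAH formed was read by MTase-Glo luminescence.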
# Calls only; i = inactive; ? = inconclusive; + = active, no number. % is set by controls: 0 for no effect and ±100 for the full control effect. Not all compounds are listed (hit frequency here may not be typical).
SMILES,Methyltransferases
CN(C)Cc1nnc(C2CC(NC(=O)c3conc3-c3ccccc3)C2)n1C (stereo unspecified),i
CCOc1ccc(CN2C(=O)c3c(C(=O)OC)ncn3CC2(C)C(=O)NC2CCCC2)cc1 (stereo unspecified),i
O=C1CC2(CCN(Cc3ccc(C(F)(F)F)cc3)CC2)Oc2ccccc21,i
O=C(CC1CCN(C(=O)c2cc(F)ccc2F)C1)NC1CC1 (stereo unspecified),i
CC(C)CCn1c(=O)c2ccccc2n2c(SCC(=O)Nc3ccc4c(c3)OCO4)nnc12,i
CCOC(=O)c1cc2n(n1)CC(C)(C(=O)NCCCOC)N(c1ccc(C)cc1C)C2=O (stereo unspecified),i
CCN(CC)C(=O)CCn1ccc2cc(S(=O)(=O)N3CCCCC3)ccc21,i
Cc1ccc(Cn2nc3n(CCC(C)C)c(=O)c4ccc(C(=O)NC(C)C)cc4n3c2=O)cc1,i
N=c1nc2n(cc1F)C1OC(CO)C(O)C1O2 (stereo unspecified),i
CCc1cccc(N2C(=O)c3c(NC(C)=O)c4cc(F)ccc4n3CC2(C)C(=O)NC2CCCC2)c1 (stereo unspecified),i
CCC1CCCCN1CCCN1C(=O)c2cc3occc3n2CC1(C)C(=O)NC1CCC(C)CC1 (stereo unspecified),i
CCc1ccc(NC(=O)Cn2nc3n(C(C)C)c(=O)c4ccc(C(=O)NCC(C)C)cc4n3c2=O)cc1,i
COc1ccc(N2C(=O)c3cc(-c4ccccc4)nn3CC2(C)C(=O)NCc2ccccc2)cc1 (stereo unspecified),i
CC(C)C(C(=O)N1CCCC1C(=O)O)N(C)C(=O)C(O)Cc1ccccc1 (stereo unspecified),i
COc1ccc(C(=O)NC2CCN(c3nc4ncccc4o3)CC2)cc1,i
COc1ccc(C(=O)COC(=O)C(Cc2c[nH]c3ccccc23)NC(=O)c2ccc(Br)cc2)cc1 (stereo unspecified),i
CCOC(=O)C(Cc1cccc(N2CCN([S+](=O)([O-])c3ccccc3Cl)CC2)c1)OC (stereo unspecified),i
CCCN1C(=O)c2c(C(=O)NCc3ccccc3OC)ncn2CC1(C)C(=O)NCc1ccc(F)cc1 (stereo unspecified),i
Cc1nn(-c2ccccc2)c(C)c1Cc1nc(C(C)C)no1,i
Cc1ccccc1N1C(=O)c2ccc(-c3ccco3)n2CC1(C)C(=O)NC1CCCC1 (stereo unspecified),i
Cc1ccccc1-n1c([C@H](C)Nc2nc(N)nc3nc[nH]c23)nc2cccc(C)c2c1=O,i
O=S(=O)(c1ccc(Cl)cc1)c1nnn2c1nc(NCc1ccc3c(c1)OCO3)c1ccccc12,i
O=C1CCCCC(C(=O)NC2CCCC2)N1 (stereo unspecified),i
CCOC(=O)c1cc2n(n1)CC(C)(C(=O)NCCC(C)C)N(c1ccc(Cl)cc1C)C2=O (stereo unspecified),i
CC1(C(=O)NC2CCCC2)Cn2c(ccc2-c2ccco2)C(=O)N1CCCc1ccccc1 (stereo unspecified),i
CNCc1cn(C[C@H]2O[C@@H](CC(=O)NCc3ccc(F)cc3)[C@H](O)[C@@H]2O)nn1,i
O=C(NCCc1nccs1)c1cn(CCN2CCNCC2)nn1,i
COC(=O)c1ncn2c1C(=O)N(c1ccc3c(c1)OCO3)C(C)(C(=O)NCCCOC(C)C)C2 (stereo unspecified),i
CCCn1c(=O)c2ccc(C(=O)NC(C)CC)cc2n2c(=O)n(CC(=O)Nc3ccc(F)cc3)nc12 (stereo unspecified),i
O=C([C@@H]1C[C@@H](c2ccc(F)cc2)N([S+](=O)([O-])c2cccnc2)C1)N1CCOCC1,i
COc1ccc([C@@]2(O)c3c(ccc(CC=C(C)C)c3O)NC(=O)[C@@H]2OC)cc1,i
CC(C)CCn1c(=O)c2ccccc2n2c(=O)n(CC(=O)Nc3ccccc3F)nc12,i
CN1CCN([C@H]2CCN(C(=O)COCc3ccccc3)C[C@H]2CCCO)CC1,i
COc1ccc(-c2cc3n(n2)CC(C)(C(=O)NCc2ccccc2OC)N(Cc2ccccc2)C3=O)cc1 (stereo unspecified),i
COc1ccc(CN2C(=O)c3ccc(-c4ccccc4)n3CC2(C)C(=O)NC2CCCC2)cc1 (stereo unspecified),i
CCCCOc1cc2oc(=O)cc(-c3ccccc3)c2cc1Cl,i
CN1CCN(Cc2nc(C3(O)CCN(Cc4ccccc4C(F)(F)F)CC3)cs2)CC1,i
COc1cccc(CN2C(=O)c3nc4ccccc4n3CC2(C)C(=O)NCc2ccccc2)c1 (stereo unspecified),i
c1cnc(-c2noc(-c3nc(-c4ccc5c(c4)OCO5)no3)n2)cn1,i
CSc1cccc(N2C(=O)c3cc4ccccc4n3CC2(C)C(=O)NCCC(C)C)c1 (stereo unspecified),i
O=S(=O)(c1ccccc1)N1CCN(c2ccnc3ccnn23)CC1,i
c1ccc(-c2cc3c(cn2)NCCN(CC2CC2)C3)cc1,+
C=CC[N+]1([C@H]2C[C@H]3[C@@H]4CC[C@H]5C[C@H](OC(C)=O)[C@@H](N6CCCCC6)C[C@]5(C)[C@H]4CC[C@]3(C)[C@H]2OC(=O)CC)CCCCC1,+
COc1cccc(NC(=O)CCc2nnc3n(Cc4ccccc4)c(=O)c4ccccc4n23)c1,i
COc1cccc(CN2C(=O)c3cc(-c4ccco4)nn3CC2(C)C(=O)NC2CCCCCC2)c1 (stereo unspecified),i
COc1ccc(C(=O)Nc2ccc([C@H]3OCC(=O)N[C@@H]3CO)cc2)cc1,i
CCCn1c(=O)c2cc(Cl)ccc2n2c(=O)n(CC(=O)c3ccc(OC)cc3)nc12,i
CCC(C)NC(=O)c1ccc2c(=O)n(C)c3nn(CC(=O)Nc4ccccc4F)c(=O)n3c2c1 (stereo unspecified),i
O=C(O)CCC1CCCN(S(=O)(=O)c2ccc(F)cc2)C1 (stereo unspecified),i
O=C(COc1ccccc1)N1CCOC[C@H](Oc2ccccc2)C1,i
# Other structures follow:
SMILES,Methyltransferases
O=c1[nH]c(C2CCN(Cc3ccc(-c4cccnc4)cc3)CC2)nc2ccc(F)cc12,i
O=C(NCCc1c[nH]c2ccc(Cl)cc12)c1ccc(CN2C(=O)CCn3nccc32)cc1,i
CC1(C)CC[C@@]2(C(=O)O[C@@H]3O[C@H](CO)[C@@H](O)[C@H](O)[C@H]3O)C(C1)C1=CCC3[C@@]4(C)CC[C@@H](O[C@@H]5O[C@H](C(=O)O)[C@@H](O[C@@H]6OC[C@@H](O)[C@H](O)[C@H]6O)[C@H](O[C@@H]6OC[C@](O)(CO)[C@H]6O)[C@H]5O)C(C)(C)C4CC[C@@]3(C)[C@]1(C)C[C@H]2O (stereo partly specified),i
CCn1ccn2c(-c3ccccc3)nc(C)c2c1=O,i
COc1cccc(CN2C(=O)c3ccc(-c4ccco4)n3CC2(C)C(=O)NCCC(C)C)c1OC (stereo unspecified),i
CCCn1c(=O)c2ccc(Cl)cc2n2c(=O)n(CC(=O)Nc3ccc4c(c3)OCO4)nc12,i
CC1CCC2C(C)(C)[C@@H](O)CC[C@]2(C)C12Cc1c(O)cc3c(c1O2)CN(C(CCC(=O)O)C(=O)O)C3=O (stereo partly specified),i
COc1ccc(F)cc1-c1cc(NC(=O)[C@@H]2CCCNC2)ncc1Cl,?
O=c1c2nc(NCCOc3ccccc3)ccc2ncn1Cc1ccccc1,i
Cn1cc(CCn2cnc(-c3cnn(C)c3)c2-c2ccc(C#N)cc2)cn1,?

# 7 successive records from above, quoted:
SMILES,Methyltransferases
CCn1ccn2c(-c3ccccc3)nc(C)c2c1=O,i
COc1cccc(CN2C(=O)c3ccc(-c4ccco4)n3CC2(C)C(=O)NCCC(C)C)c1OC (stereo unspecified),i
CCCn1c(=O)c2ccc(Cl)cc2n2c(=O)n(CC(=O)Nc3ccc4c(c3)OCO4)nc12,i
CC1CCC2C(C)(C)[C@@H](O)CC[C@]2(C)C12Cc1c(O)cc3c(c1O2)CN(C(CCC(=O)O)C(=O)O)C3=O (stereo partly specified),i
COc1ccc(F)cc1-c1cc(NC(=O)[C@@H]2CCCNC2)ncc1Cl,?
O=c1c2nc(NCCOc3ccccc3)ccc2ncn1Cc1ccccc1,i
Cn1cc(CCn2cnc(-c3cnn(C)c3)c2-c2ccc(C#N)cc2)cn1,?

# (continued)
SMILES,Methyltransferases
COc1cc(OC)cc(-c2cc3cnc(N)nc3nc2NC(=O)NC(C)(C)C)c1,i
CC(C)OC(=O)C(C)Oc1ccc2c(-c3ccccc3)cc(=O)oc2c1 (stereo unspecified),i
CCCn1c(=O)c2ccccc2n2c(=O)n(CC(=O)c3ccc(C)cc3)nc12,i
OCc1ccc(-c2ccc(-c3ccc(CO)s3)o2)s1,i
COc1cc(Cl)ccc1C(=O)N1CC[C@@](C)(O)[C@@H](O)C1,i
CCCCOC(=O)COc1cc2oc(=O)cc(-c3ccccc3)c2cc1Cl,i
COc1cc(C2Oc3c(OC)cc(CCCO[C@@H]4O[C@H](CO)[C@@H](O)[C@H](O)[C@H]4O)cc3C2CO)ccc1O (stereo partly specified),+
CCOC(=O)c1cc2n(n1)CC(C)(C(=O)NC1CCCCCC1)N(c1cc(OC)cc(OC)c1)C2=O (stereo unspecified),i
COC(=O)Cn1nc(-c2cccc(OC)c2)c2ccccc21,i
COC(=O)CNC(=O)c1cc(-c2cccnc2)c2nncn2n1,i
COCCn1ncc(N2CCCC(CC(=O)O)C2)cc1=O (stereo unspecified),i
CC(C)n1c(=O)c2ccc(C(=O)NC3CCCC3)cc2n2c(=O)n(CC(=O)NC3CCCC3)nc12,i
Cc1ccc(C2c3cccn3-c3sc4c(c3CN2C(=O)Nc2cc(F)ccc2F)CCCC4)cc1 (stereo unspecified),i
Cc1ccc(CNC(=O)Cn2ccc3cc(S(=O)(=O)N4CCCCC4)ccc32)o1,i
CC1(C(=O)NC2CCCCCC2)Cn2c(cc3occc32)C(=O)N1Cc1ccco1 (stereo unspecified),i
C=C1CCC2C(C)(C)CC(=O)CC2(C)C1CCC(C)CCOC(C)=O (stereo unspecified),i
COc1ccc(CNC(=O)C2(C)Cn3cnc(C(=O)NCc4ccc(C)cc4)c3C(=O)N2C2CC2)cc1 (stereo unspecified),i
CCCN1C(=O)c2cc(C(=O)NCc3ccc(OCC)c(OC)c3)nn2CC1(C)C(=O)NC1CCCC1 (stereo unspecified),i
CCCCc1nn(CC(=O)N2CCSCC2)c(=O)n1CCc1ccccc1,i
CC#CC(=O)Nc1ccc2ncnc(Nc3cccc(Br)c3)c2c1,?

# In a second layout: results already given
SMILES | Methyltransferases
CCCCc1nn(CC(=O)N2CCSCC2)c(=O)n1CCc1ccccc1 | i
COc1ccc(CNC(=O)C2(C)Cn3cnc(C(=O)NCc4ccc(C)cc4)c3C(=O)N2C2CC2)cc1 (stereo unspecified) | i
COCCn1ncc(N2CCCC(CC(=O)O)C2)cc1=O (stereo unspecified) | i

# (cont.)
SMILES,Methyltransferases
CC(=O)N1CCN(C(=O)c2ccc3oc(-c4ccccn4)nc3c2)CC1,i
CCCC1c2ccc(C)n2CCN1C(=O)Nc1ccc(C)cc1 (stereo unspecified),i
CNC(=O)c1cc2n(n1)CC(C)(C(=O)NC1CCCCCC1)N(C)C2=O (stereo unspecified),i
Cc1cc2c(cc3n2CC(C)(C(=O)NC2CCCCCC2)N(CCCc2ccccc2)C3=O)o1 (stereo unspecified),i
O=C(c1ccccc1)N1CCC2(CC(Cc3ccccc3)=NO2)C1 (stereo unspecified),i
COC(=O)c1ncn2c1C(=O)N(C1CC1)C(C)(C(=O)NCc1ccc(C)cc1)C2 (stereo unspecified),i
O=C(CC1CCCC1)N1CCC(c2noc(-c3cnccn3)n2)C1 (stereo unspecified),i
COc1cccc(CNC(=O)CCc2nnc3n(Cc4ccccc4)c(=O)c4ccccc4n23)c1,i
Cc1nn(Cc2ccccc2)c(C)c1[C@@H]1C=C[C@@H](NC(=O)c2cccs2)C1,i
CCC(C)CNCC(=O)N1CCc2sccc2C1COc1cccc(C)c1 (stereo unspecified),i
CCc1ccc(CNC(=O)c2cc3n(n2)CC(C)(C(=O)NCc2ccc(F)cc2)N(C)C3=O)cc1 (stereo unspecified),i
Cc1ccc(CCNC(=O)CN(C)S(=O)(=O)c2ccc3[nH]c4c(c3c2)CCCC4)cc1,i
CC1=C2CC(C)(C)CC2C(O)C2=C(C1)C(=O)OC2O (stereo unspecified),i
Cc1ccc(Cl)cc1N1CCN(S(=O)(=O)c2cccc(-c3nc(-c4ccccc4)no3)c2)CC1,i
CC1(C(=O)NC2CCCCCCC2)Cn2c(cc3occc32)C(=O)N1CCCN1CCCC1 (stereo unspecified),i
CCOC(=O)N1CCN(Cc2nccn2CCOC)CC1,i
CCOCCn1nc(C)cc1C(=O)N1CC(C)(C)[C@@](C)(O)C1,i
Cc1ccc(CNC(=O)C2(C)Cn3nc(C(=O)NCCCN4CCCCC4)cc3C(=O)N2C)cc1 (stereo unspecified),i
CCC(Sc1nnc2c(n1)[nH]c1ccccc12)C(=O)N1c2ccccc2Sc2ccccc21 (stereo unspecified),?
O=C(c1ccc(Cl)s1)N1CCC(n2cnnc2-c2ccccc2)C1 (stereo unspecified),i

# Given with bars between the fields: part of the list above
molecule | Methyltransferases
CCOCCn1nc(C)cc1C(=O)N1CC(C)(C)[C@@](C)(O)C1 | i
O=C(c1ccc(Cl)s1)N1CCC(n2cnnc2-c2ccccc2)C1 (stereo unspecified) | i
CCOC(=O)N1CCN(Cc2nccn2CCOC)CC1 | i

# Remaining list, next part.
SMILES,Methyltransferases
O=C(CCc1ccc(O)cc1)c1c(O)cc(O)cc1O,i
COC(=O)CNC(=O)C1CCc2nnc(CNC(=O)NC(C)C)n21 (stereo unspecified),i
CC(C)C(=O)Nc1ccc([N+](=O)[O-])c(C(F)(F)F)c1,i
CCN(CC1CCN(CCc2ccccc2C)CC1)C(=O)c1csc(C)n1,i
CCCn1c(=O)c2ccc(C(=O)NC(C)C)cc2n2c(SCC(=O)NC3CCCC3)nnc12,i
CCN(CCCNC(=O)CCc1nnc2n(CCC(C)C)c(=O)c3ccccc3n12)c1cccc(C)c1,i
CC(C)NC(=O)NC[C@H]1OC[C@@H](NC2CCCC2)[C@@H]1O,i
COc1cccc(CN2CCOCCNC(=O)CC2)c1,i
